PINK1 modulator – changes PINK1 expression; PINK1 immunofluorescence, high-content cytometry, 24 h; Potency, µM (doses to about 76.6 µM), inactives show at the highest dose activation (PINK1 increase), actives largely listed as activators; 410,000 compounds, 0.2% hits; AID 624263; active = well fitted activation curve with a large enough effect; inconclusive = small, poorly fitted or top-dose-only effect; inactive = flat fitted curve, though single readings scatter; cell line not stated here;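 further: potency means the concentration at half of the fitted maximal effect; % of control where 0% means no effect; nearly all actives have a fitted effect of over 65% in size; a mitochondrial uncoupler was the plate control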
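Measures PINK1 amount and localization on or inside mitochondria by immunofluorescence. Stable cells get compounds at 5 concentrations for 24 hours before fixation and staining; CCCP controls included.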
Menin MLL FP FL – inhibitors of human menin-MLL interaction, wild-type MLL peptide; Fluorescence polarization, fluorescein-MLL peptide displacement from menin; FP activity change, % at 61.4 µM; 290,000 tested, under 10 active; inconclusive = falling polarisation curve, or a change in total fluorescence; inactive = total fluorescence flat and polarisation flat or rising; no compound was filed as active; the % refers to the polarisation; negative = inhibition;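 further: % of control where 0% means no effect; inhibitors lower the polarisation; unlabelled MLL peptide was the positive control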
gsp agonist – gsp mutant agonism. gsp mutant cells, cAMP HTRF, 30 min; control for the full effect not named in the record. Potency, µM (top dose mostly 76.9 µM), for inactives: at the top dose activation (cAMP increase), hits mostly activators. 340,000 compounds, 0.13% hits. AID 624287; active = well fitted activation curve with a large enough effect; inconclusive = small, poorly fitted or top-dose-only effect, or another doubt; inactive = no such curve, though single readings can be large or run the other way; cell line not stated here;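 further: phosphodiesterase inhibitor Ro 20-1724 added with compounds to block cAMP breakdown; potency means the concentration at half of the fitted maximal effect; nearly all actives have a fitted effect of over 60% in size; about a fifth of the inactives were tested at one dose only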
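Cells stably selected in G418 were plated at 2000/well, grown 16-24 hr, then given compounds in DMSO with the PDE inhibitor […] (300 uM solution added) for 30 min at 37C; cAMP was read by HTRF.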
gsp antagonist – antagonizes gsp, the McCune-Albright syndrome mutation. gsp-mutant cells, cAMP HTRF, 30 min; control for the full effect not named in the record. Potency, µM (titrated, usually from 76.9 µM), for the others: at the highest dose activity change, negative = inhibition, usual class: inhibitors. 340,000 compounds, 0.4% hits. AID 624288; active = falling curve of any shape with a large fitted effect; inconclusive = falling curve, mostly with a smaller effect; inactive = flat or rising curve; cell line not stated here;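 further: intracellular cAMP measured with PDE inhibitor Ro 20-1724 present during compound exposure; potency means the concentration at half of the fitted maximal effect; on the % scale 0 is the no-effect control and ±100 the full control effect; nearly all actives have a fitted effect of over 65% in size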
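HTRF cAMP measurement after 30 min RT detection following 30 min, 37C compound treatment alongside […] (added as 300 uM solution) in G418-selected cells seeded at 2000/well and grown 16–24 h.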
Sfp PPTase inh – inhibitors of Bacillus subtilis Sfp phosphopantetheinyl transferase | Biochemical Sfp PPTase activity, qHTS | Potency, µM, for the others: max response, negative = inhibition, most hits filed as inhibitors | 310,000 compounds, 3.5% hits | AID 1490; active means well fitted inhibition curve with a large enough effect; inconclusive means small, poorly fitted or top-dose-only effect, or another doubt; inactive means no such curve, though single readings can be large or run the other way;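 further: the enzyme is Sfp with the accession as filed and its product quenches rhodamine fluorescence; potency means the concentration at half of the fitted maximal effect; 0% = enzyme reaction without inhibitor and -100% = no enzyme wells; top concentration of the series not given in the record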
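Fluorescence-quenching assay with 15 nM Sfp, 5 uM rhodamine-CoA and 12.5 uM BHQ-2-labelled ybbR peptide in pH 7.6 Hepes/MgCl2 buffer. Enzyme was pre-incubated with compound for 15 min at room temperature. Rate was taken from the 30-min fluorescence change (525/598 nm).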
ClpP mod – qHTS Assay for Activators of ClpP | AID 651965, 2013 | ATP-dependent Clp protease proteolytic subunit (Bacillus subtilis (strain 168)), P80244 | Potency, µM (series often up to 57.5 µM), without a hit: at the top dose activity change, negative = active | 340,000 compounds, 1.9% hits | purified B. subtilis ClpP, FRET peptide cleavage, 20 min; active = well fitted falling curve with a large enough effect; inconclusive = small, poorly fitted or top-dose-only effect; inactive = no such curve, though single readings can be large or run the other way; further: potency means the concentration at half of the fitted maximal effect; the source files actives as falling curves though it sought activators and does not explain the sign; nearly all actives have a fitted effect of over 65% in size; many hits overshoot -100%
Target sequence (P80244 whole entry, looked up): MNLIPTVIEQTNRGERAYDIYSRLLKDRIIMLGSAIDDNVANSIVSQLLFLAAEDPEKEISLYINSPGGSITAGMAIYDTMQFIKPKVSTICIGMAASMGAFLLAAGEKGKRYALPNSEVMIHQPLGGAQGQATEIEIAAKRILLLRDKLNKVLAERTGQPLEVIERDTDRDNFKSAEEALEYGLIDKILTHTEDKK
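FRET quenching reversal measured ClpP activation: 10 microg/mL B. subtilis ClpP at pH 8 with the FRET-FV decapeptide, read at 430 nm after 320 nm excitation. The 20-min minus 0-min signal was scaled between DMSO/no-enzyme wells and ADEP (5.8 microM final).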
D2 ag – human D2 receptor agonism in beta-arrestin assay. P14416. DiscoveRx PathHunter D2 beta-arrestin, luminescence, 90 min; 100% = 57 uM dopamine signal. activation, % (concentration not given with the values). 360,000 compounds, 0.084% hits; in the data active = activation above about 40%; inconclusive = about 15% to 40%; inactive = below about 15%; further: the text of the record calls up to 30% inactive
Target sequence (P14416 whole entry, looked up): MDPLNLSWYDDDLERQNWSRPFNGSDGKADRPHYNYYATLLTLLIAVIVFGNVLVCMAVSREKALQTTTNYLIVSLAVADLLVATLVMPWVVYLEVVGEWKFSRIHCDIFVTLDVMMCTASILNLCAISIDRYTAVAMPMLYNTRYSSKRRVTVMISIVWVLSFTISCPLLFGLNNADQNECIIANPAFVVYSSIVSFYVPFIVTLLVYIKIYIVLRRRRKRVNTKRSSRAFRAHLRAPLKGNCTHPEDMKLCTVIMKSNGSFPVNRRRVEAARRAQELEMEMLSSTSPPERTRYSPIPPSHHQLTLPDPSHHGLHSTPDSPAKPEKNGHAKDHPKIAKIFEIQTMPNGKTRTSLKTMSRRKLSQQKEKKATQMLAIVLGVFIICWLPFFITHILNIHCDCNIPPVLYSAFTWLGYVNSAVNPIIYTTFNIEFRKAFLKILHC
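DiscoveRx PathHunter D2 beta-arrestin cells (2,100/well) attached overnight, then compound-stimulated 90 min at 37 C in HBSS/10 mM HEPES/0.1% Tween-20 buffer; beta-galactosidase complementation read by luminescence after 1 h at ambient temperature. Dopamine 57 uM final (EC100) as control.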
* marks the source's active call; other numbers are inactive results; ? = inconclusive; / = not tested or not shown; & = joins results of further samples; [ ] = remark or other dose. No enrichment for hits; 5.1% or so of the library scored in one or more.

smiles	PINK1 modulator	Menin MLL FP FL	gsp agonist	gsp antagonist	Sfp PPTase inh	ClpP mod	D2 ag
Cn1nc(C(C)(C)C)cc1C(=O)N1CCCCC1c1cc(C(=O)Nc2ccc3c(c2)OCO3)no1 (stereo unspecified)	3.3%	/	/	/	/	-0.9%	1.4
CCCn1c(N)c(C(=O)COc2ccc(Br)cc2F)c(=O)n(C)c1=O	3.4%	-2.1	23%	-6%	-1%	-0.6%	0.0
CCCCCCSc1cccc(-c2nc3ccccn3c2NCc2ccccc2)c1	?	/	/	-3%	/	3.5%&5.3%	2.5
CCOc1cc(-c2ccccc2)nc(N)n1	-2.2%	0.7	3%	2%	17%	-2.7%	-3.7
Cc1c(N=NC2=C(O)CC(C)(C)CC2=O)c(=O)n(-c2ccccc2)n1C	2.2%	1.9	10%	8%	40µM*	/	-4.6
Clc1ccc(C2=CSC3=NCCN23)c(Cl)c1	-0.9%	/	8%[15.4 µM]	16%	/	/	-5.9
CCOC(=O)c1c(NC(=O)C2c3ccccc3Oc3ccccc32)sc(C(N)=O)c1C	7.9%	-0.3	22%	-17%	5%	-7.4%	-4.1
COc1ccc(C=C(C(C)=O)C(C)=O)cc1OC	-1.7%	0.4	-40%[inhibitor]	20%	14%	-1.6%	-0.8
COc1ccc(-c2csc(NC(=O)CCNC(=O)c3ccco3)n2)cc1	2.2%	/	-5%	/	/	0.2%	-1.3
Cc1cc(=O)n2nc(N3CCC(C(=O)N4CCN(Cc5ccccc5)CC4)CC3)sc2n1	-0.2%	2.6	?	-6%	8%	-0.5%	-5.1
C=Cn1ccnc1CC(O)c1ccc(OC)cc1 (stereo unspecified)	0.6%	/	-1%[15.4 µM]	5%	/	-1.8%	2.6
Cc1c(Br)c([N+](=O)[O-])nn1CC(=O)NCc1ccccn1	-0.1%[38.3 µM]	1.4	4%	9%	3%	0.9%	-1.2
CCOC(=O)CSc1ncnc2c1cnn2-c1ccc(C)cc1C	-0.3%	-1.4	20%[15.4 µM]	-10%	13%	-2.2%	-4.0
Cc1nc2ccc(N)cc2c(=O)n1Cc1ccc(Cl)cc1	-0.6%	2.0	-50%[inhibitor]	-5%	6%	35µM*	-0.1
O=C(N/N=C\c1ccc(-c2ccccc2[N+](=O)[O-])o1)C1COc2cc3ccccc3cc2O1 (stereo unspecified)	1.1%	0.4	-73%[inhibitor]	7%	17%	-0.6%	11
Cc1ccc(C)c(S(=O)(=O)Nc2ccc(C(=O)NCCCN3CCOCC3)cc2)c1	2.1%	/	-6%[15.4 µM]	-4%	/	/	-5.3
Cc1ccc(C(=O)OCC(=O)NC(=O)c2cccn2C)cc1[N+](=O)[O-]	2.2%	1.8	0%	11%	8%	-2.0%	-2.8
COC(=O)c1ccc(OCCN2C3=NCCN3c3ccccc32)cc1	1.1%	3.3	-5%	16%	5%	-0.9%	-0.8
CCOC(=O)NC1(C(F)(F)F)C(=O)N(Cc2ccccc2)C2=C1C(=O)CC(C)(C)C2 (stereo unspecified)	/	-0.9	-2%	-8%	20%	1.7%	3.6
COCn1c(-c2cccc(Br)c2)nc2ccccc21	3.4%[38.3 µM]	4.7	10%	-23%	9%	?	-3.3
Cc1cc(CNC(=O)c2cccc(OC3CCN(S(=O)(=O)N(C)C)CC3)c2)on1	0.4%	/	?	-14%	-1%	-0.3%	-3.6
Cc1cc(CC(C)C)n(-c2nc3ccccc3c(=O)n2OCC(N)=O)n1	0.5%	-0.7	9%	9%	-6%	-0.6%	-2.6
O=C(NCC(c1ccco1)N1CCN(c2ccccc2)CC1)c1ccc2c(c1)OCO2 (stereo unspecified)	1.5%	?	7%[15.4 µM]	-2%	18%	/	7.0
COc1ccc2[nH]c(=O)c(C(c3nnnn3C3CCCC3)N3CCN(Cc4ccc5c(c4)OCO5)CC3)cc2c1 (stereo unspecified)	-1.6%[38.3 µM]	1.8	-18%	-6%	-2%	28µM*	-1.9
CCc1ccc(Nc2n[n+](-c3ccccc3)c(-c3ccc(C(=O)O)cc3)s2)cc1	-0.1%	3.3	/	-8%	45µM*	-3.0%	-1.8
Nc1c(Cl)ncnc1N1CCN(c2ncnc(Cl)c2N)CC1	1.5%	7.6	3%	16%	-1%	-1.0%	2.1
Cc1ccc(C)c(-c2nnc(NC(=O)c3ccco3)o2)c1	2.0%	/	-2%	-6%	/	-1.6%	-3.5
CN(C)c1cc[n+](CC(=O)N2c3ccccc3Sc3ccccc32)cc1	3.2%	0.1	1%[15.4 µM]	14%	9%	-1.9%	-3.0
Cc1csc2c(=O)sc(NC(=O)c3cccs3)nc12	3.2%	0.0	5%[15.4 µM]	15%	0%	/	-4.2
CCOCc1c(C(=O)NCC(c2ccco2)N2CCCC2)oc2ccccc12 (stereo unspecified)	-0.7%	/	8%	6%	/	-3.7%	-6.6
CC1=C(C(=O)N(C)C)CC(CC(=O)NCc2ccco2)C(=O)N1Cc1ccccc1 (stereo unspecified)	1.4%	/	-34%	/	/	-2.6%	-0.6
Cc1ccc(S(=O)(=O)N2C[C@]3(O)C[C@@H]4C(=O)N(c5ccccc5)C(=O)[C@@H]4C[C@]3(OC(=O)NCc3ccccc3)C2)cc1	0.0%	/	4%	/	/	1.9%	-10.0
C[C@@H]1CC[C@H](Cc2ccc(-n3cccc3)cc2)N1C(=O)OC(C)(C)C	24%	/	-17%	/	/	0.7%	-9.3
O=C(NCCCN1CCOCC1)c1cnccn1	1.8%	/	-3%	17%	9%	-1.2%	-1.1
Cc1cccc(-c2cc3nc(-c4ccccc4)cc(=O)n3[nH]2)c1	10%	-3.4	18%	-6%	3%	/	-0.9
N#Cc1cccc(-c2ccc3ncnc(NCc4cccs4)c3c2)c1	-0.3%	1.4	/	/	-15%	/	/
CCOC(=O)Nc1ccccc1N1C(=O)c2ccccc2C1=O	-0.9%	-0.2	2%	7%	19%	-2.4%	1.3
COc1cc(C(C)=O)ccc1OCC(=O)Nc1ccc(Cl)c(S(=O)(=O)N2CCOCC2)c1	1.8%	/	-9%	?	/	-5.8%	15
COc1ccc(CCNC(=O)C2CCN(S(=O)(=O)c3ccc(F)cc3)CC2)cc1	0.0%	4.0	-7%	9%	15%	-3.1%	-4.9
Cn1cc(Br)c(C(=O)NN2C(=O)C3C(C2=O)C2C=CC3C23CC3)n1 (stereo unspecified)	0.8%	4.8	-18%	-1%	25%	0.0%	-3.0
Cc1cccc(Nc2ccc3nonc3c2[N+](=O)[O-])c1C	?	-4.2	2%[15.4 µM]	12%	13%	1.7%	-0.5
CCc1ccc(C(=O)NCC2COc3ccccc3O2)o1 (stereo unspecified)	3.8%[38.3 µM]	2.1	5%	8%	-6%	-1.2%	1.1
OCCC1CN(Cc2cnc(-c3ccc(Cl)cc3)nc2)CCN1C1CCCCC1 (stereo unspecified)	4.4%	-3.0	-3%	7%	11%	2.8%	-6.0
CCOc1cccc(-c2c(C(=O)N/N=C/c3ccoc3)nnn2-c2nonc2N)c1	3.0%	/	?	8%	13%	0.2%	-4.4
Cc1cc(C(=O)NCC(=O)Nc2c(C)cccc2C)c(C)o1	-0.2%	1.0	-23%	-7%	13%	-0.1%	-2.5
COCCN1C(=O)CCC1(C)C(=O)Nc1ccc2c(c1)OCCO2 (stereo unspecified)	0.4%	/	/	/	/	-1.7%	-4.3
COc1cccc(CN(C)C(=O)c2csc3c2CCCC3)c1OC	0.0%	-6.9	0%	4%	6%	/	-0.4
CCOC(=O)c1sc(N)nc1C(C)C	0.6%	2.3	8%	4%	45µM*	-0.4%	-0.3
Cc1ccc(S(=O)(=O)N(C)CC(=O)NCCc2c[nH]c3ccccc23)cc1	-0.1%	/	8%[15.4 µM]	-12%	2%	/	-2.6
CC(=O)c1ccc(OCCCC(=O)NC2CCCc3ccccc32)cc1 (stereo unspecified)	-1.8%	-0.8	3%	-7%	3%	-2.3%	-0.5
O=C(CSc1nnc(C2CC2)n1-c1ccccc1)NCCc1ccccc1	0.9%	0.7	19%	-6%[15.4 µM]	4%	-2.9%	-3.7
CC(=O)c1ccc(OCCCN2CCCCC2)cc1	-3.1%	-0.2	15%	14%	-14%	3.4%	-0.8
COc1ccc(CCNC(=O)C2CCN(S(C)(=O)=O)CC2)cc1OC	-0.5%[38.3 µM]	0.8	-66%[inhibitor]	-1%	13%	-0.7%	4.4
COc1ccc2c(c1)[nH]c1c(=O)n(CCc3cnc[nH]3)cnc12	-0.4%	-0.9	-47%[inhibitor]	-12%	-10%	?	-1.3
N#CC(=C1CCCC1)c1nc(-c2ccc(Cl)cc2)cs1	7.5%	4.5	-53%[inhibitor]	-6%	-7%	-2.7%	-2.3
CC(=O)NC12CC3CC(C1)CC(C(=O)N(C)CC(=O)Nc1ccc(F)c(F)c1F)(C3)C2	-0.1%	/	0%	7%	/	-1.9%	-2.9
COc1ccc(NS(=O)(=O)c2cc(NC(=O)c3ccc(=O)[nH]c3)ccc2N2CCOCC2)cc1	0.7%	0.4	-6%[15.4 µM]	-4%	13%	/	2.5
O=[N+]([O-])c1cc(Cl)c2cccnc2c1O	5.6%	1.3	22%	-19%	5%	/	2.2
CCOC(=O)C1CCC(CN(Cc2ccccc2)S(=O)(=O)c2ccc([N+](=O)[O-])cc2)CC1 (stereo unspecified)	0.4%	-0.6	-29%	-11%	12%	-29%	3.2

Source: PubChem BioAssay
